Screening results (PubChem BioAssay)
RecA intein inh: inhibitors of M. tuberculosis RecA intein splicing. cell-free RecA intein splicing, fluorescence. actives 0.75% (n = 290,000). P9WHJ3. inhibition, %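 (about 9 µM by stock and volumes)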; in the data active = inhibition above about 30%; inconclusive = no clear call, values can overlap the other calls;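 note: 0% = vehicle wells and 100% = reference inhibitor control wells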
Target sequence (P9WHJ3 whole entry, looked up): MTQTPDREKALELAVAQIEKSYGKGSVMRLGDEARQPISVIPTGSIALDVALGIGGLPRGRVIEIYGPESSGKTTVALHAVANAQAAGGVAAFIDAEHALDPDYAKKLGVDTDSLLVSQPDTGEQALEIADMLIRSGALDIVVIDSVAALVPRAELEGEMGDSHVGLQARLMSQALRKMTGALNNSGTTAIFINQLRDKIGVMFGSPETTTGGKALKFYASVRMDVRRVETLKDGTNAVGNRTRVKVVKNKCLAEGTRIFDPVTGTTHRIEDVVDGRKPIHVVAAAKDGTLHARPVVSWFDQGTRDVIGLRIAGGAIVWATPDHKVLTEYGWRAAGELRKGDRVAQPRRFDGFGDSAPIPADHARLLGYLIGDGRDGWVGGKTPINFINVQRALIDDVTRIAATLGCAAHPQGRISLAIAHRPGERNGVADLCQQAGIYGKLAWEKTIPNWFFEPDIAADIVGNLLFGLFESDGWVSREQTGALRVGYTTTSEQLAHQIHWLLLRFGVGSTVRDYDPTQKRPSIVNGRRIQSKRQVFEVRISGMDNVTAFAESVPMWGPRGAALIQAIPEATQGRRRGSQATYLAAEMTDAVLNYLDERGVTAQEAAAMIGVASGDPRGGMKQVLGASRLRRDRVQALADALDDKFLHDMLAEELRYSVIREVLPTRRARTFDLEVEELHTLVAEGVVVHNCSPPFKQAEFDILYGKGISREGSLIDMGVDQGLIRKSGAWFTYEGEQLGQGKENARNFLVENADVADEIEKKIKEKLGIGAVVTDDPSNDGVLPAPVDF
Mtb betalactam: beta-lactam sensitization of Mtb H37Rv | M. tuberculosis H37Rv growth with meropenem, percent inhibition; hits of this screen are not shown here | inhibition, % at 25 µM | actives 0.27% (n = 330,000) | AID 434955;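 active = about 74% or more and at least 40 points above the plate without the antibiotic, then above 30% in a dose series; inconclusive = first-round hits that could not be retested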;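 note: growth measured after seven days incubation then overnight dye step; 0% = bacteria only wells and 100% = bacteria with antibiotic; twin plates without the antibiotic show which effects depend on it; some results filed as inactive read as strong as hits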
YopH PTP inh: blocks Yersinia enterocolitica YopH tyrosine phosphatase. fluorescence Ex485/Em525. inhibition, %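 (about 10 µM by stock and volumes)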. actives 0.16% (n = 140,000). AID 898;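 active = inhibition of 50% or more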;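 note: controls were vehicle for no effect and minimum signal wells for full effect; inactives centre near -20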
Arbovirus anti: arbovirus infection inhibition | arbovirus infection cell-based antiviral screen | inhibition, % at 10 µM | actives 0.37% (n = 200,000) | AID 1251;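 active = inhibition from about 30%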;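 note: bluetongue infection of BSR cells; cell survival read as ATP light after 72 h; 0% = infected wells without compound and 100% = uninfected wells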
Mtb H37Rv: M. tuberculosis H37Rv growth inhibitors, H37Rv strain (AID 1626). actives 0.95% (n = 220,000). M. tuberculosis H37Rv growth inhibition; higher % means a stronger effect. one-dose inhibition, % at 10 µM; IC50 in µM for titrated hits;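 active = confirmed in a dose series; inconclusive = inhibition above 80% but not taken into the dose series; inactive = below 80% or under 30% at every dose of the series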;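 note: bacteria incubated seven days before Alamar blue readout; 0% = bacteria only wells and 100% = bacteria with antibiotic wells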
Arbovirus anti repeat: recorded beside Arbovirus anti, whose call it bears; inhibition, %; measured here: 10K subset replicate screen; many hits read low in the repeat;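 first of two repeat runs on a subset; 0% = infected and 100% = uninfected wells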
* hit, by the source's call. Some of the compounds tested, so the mix of outcomes need not match the whole.

How did OCC1(Cc2ccc(Cl)cc2)CCN(Cc2ccc(F)c(F)c2)CC1 do in these assays?
RecA intein inh: 1.7; Mtb betalactam: 2; Mtb H37Rv: 7%

Results for O=C(c1ccc(OC2CCN(CCc3ccccc3)CC2)cc1)N1CCCC(O)C1 (centres undefined) ?
RecA intein inh: -0.9; Mtb betalactam: 5; Arbovirus anti: 0; Mtb H37Rv: 4%

What do the screens show for `C=CCOC(=O)C1=C[C@H](C2CCCCC2)C[C@H](OCc2ccc(CO)cc2)O1`?
RecA intein inh: 2.4; Mtb betalactam: 89; Mtb H37Rv: -3%

How did Cc1ccc(S(=O)(=O)C2C(=O)NC3(C)CC2c2ccccc2O3)cc1 (centres undefined) do in these assays?
RecA intein inh: 1.3; Mtb betalactam: 0; YopH PTP inh: -24; Arbovirus anti: 3; Mtb H37Rv: 2%

What do the screens show for `C=CCc1c(C)nc(C)nc1N/N=C/c1ccc(N(C)C)cc1`?
RecA intein inh: -10; Mtb betalactam: 55; YopH PTP inh: -5; Arbovirus anti: 13; Mtb H37Rv: 8%

How did c1ccc(C2Nc3ccccc3C3OCCCC23)cc1 (centres undefined) do in these assays?
RecA intein inh: 4.1; Mtb betalactam: 7

What do the screens show for `O=C(CSc1nnc(-c2ccncc2)n1Cc1ccccc1)NCCc1ccccc1`?
RecA intein inh: -1.6; Mtb betalactam: -4; YopH PTP inh: -7; Arbovirus anti: 12; Mtb H37Rv: 2%

How did Cc1cc(C)cc(N(CC(=O)Nc2ccc(C(F)(F)F)cc2)S(=O)(=O)c2c(C)[nH]c(=O)[nH]c2=O)c1 do in these assays?
RecA intein inh: 12; Mtb betalactam: 10

What do the screens show for `O=C(Nc1cccc2c1C(=O)NC2=O)c1ccc(N2C(=O)CCC2=O)cc1`?
Mtb betalactam: 6; Arbovirus anti: 3; Mtb H37Rv: -4%

How did Cc1[nH]ccc(=O)c1OCC(=O)O do in these assays?
RecA intein inh: 2.5; Mtb betalactam: -3; Mtb H37Rv: 5%

Results for O=C(CCCO)N/N=C/c1cc(Br)ccc1O ?
RecA intein inh: 1.5; Mtb betalactam: 4; YopH PTP inh: -45; Arbovirus anti: -19; Mtb H37Rv: 4%

What do the screens show for `Cc1ccc(-n2cc(CNCC3CC(=O)N(C4CC4)C3)c(-c3cccc(C)c3)n2)cc1` (centres undefined)?
RecA intein inh: 2.6; Mtb betalactam: 4; Arbovirus anti: -16; Mtb H37Rv: 11%

What do the screens show for `COc1ccccc1OCCn1cc(C#N)c2ccccc21`?
RecA intein inh: 2.5; Mtb betalactam: -12; YopH PTP inh: 0; Arbovirus anti: 2; Mtb H37Rv: 10%

What do the screens show for `Cc1c(CN(C)C(=O)CSc2nc(-c3ccco3)cc(C(F)(F)F)n2)cnn1C`?
Mtb betalactam: 7; YopH PTP inh: -23; Arbovirus anti: 3; Mtb H37Rv: 2%

How did CCCn1c(SCc2nc(N)nc(N3CCCCC3)n2)nc2c1c(=O)n(C)c(=O)n2C do in these assays?
RecA intein inh: 2.4; Mtb betalactam: -2; Arbovirus anti: 1; Mtb H37Rv: -9%

What do the screens show for `CCOc1ccc(S(=O)(=O)Nc2nc3cc(OC)ccc3s2)cc1`?
RecA intein inh: 0.0; Mtb betalactam: -19; YopH PTP inh: -11; Arbovirus anti: 7; Mtb H37Rv: -2%

How did O=C(N/N=C/c1cccc(C(F)(F)F)c1)C1CCN(c2ncc(C(F)(F)F)cc2Cl)CC1 do in these assays?
RecA intein inh: -6.7; Mtb betalactam: 53; YopH PTP inh: -25; Arbovirus anti: -4; Mtb H37Rv: -8%

What do the screens show for `O=C(O)c1ccc(NCc2ccc3c(c2)OCO3)cc1`?
RecA intein inh: -2.0; Mtb betalactam: 15; YopH PTP inh: -44; Arbovirus anti: 1; Mtb H37Rv: -6%

What do the screens show for `CCCSc1nnc(N2C(=O)CC(c3ccsc3)C3=C2CCCC3=O)s1` (centres undefined)?
RecA intein inh: 2.7; Mtb betalactam: -5; YopH PTP inh: -33; Arbovirus anti: 10; Mtb H37Rv: 0%; Arbovirus anti repeat: 2

How did Nc1ccc2[nH]ncc2c1 do in these assays?
RecA intein inh: 61*; Mtb betalactam: 2; YopH PTP inh: -6; Arbovirus anti: -15; Mtb H37Rv: -6%

How did Cc1ccc(S(=O)(=O)N2CCN(C(C(=O)Nc3ccc(F)cc3)c3ccccc3)CC2)cc1 (centres undefined) do in these assays?
RecA intein inh: 7.3; Mtb betalactam: 1; YopH PTP inh: -8; Arbovirus anti: 7; Mtb H37Rv: 2%

What do the screens show for `Cc1ccn2c(=O)nc(SCC(=O)c3ccccc3)nc2c1`?
RecA intein inh: 0.4; Mtb betalactam: -2

Results for CCCCc1ccc(NC(=S)N2CCN(C)CC2)cc1 ?
RecA intein inh: -2.8; Mtb betalactam: -1

What do the screens show for `Cc1cccc(C(=O)OC(C)CN2C(C)CCCC2C)c1` (centres undefined)?
RecA intein inh: 0.3; Mtb betalactam: -2

What do the screens show for `O=C(CCSc1nnc(-c2ccco2)o1)Nc1ccc(F)cc1`?
RecA intein inh: -0.5; Mtb betalactam: 74; Arbovirus anti: 13; Mtb H37Rv: 8%

Results for CCn1ncc(C2=NOC(C(=O)NCc3ccccc3)C2)c1C (centres undefined) ?
RecA intein inh: 1.4; Mtb betalactam: -8; YopH PTP inh: -30; Arbovirus anti: -10; Mtb H37Rv: 4%

How did C=CCSc1cc(C)nc2c(-c3ccccc3)cnn12 do in these assays?
RecA intein inh: 0.1; Mtb betalactam: 3; Mtb H37Rv: 0%

Results for COc1ccc(OC)c(C2C(C#N)=C(N)Oc3c2c(C)nn3-c2ccc(C)cc2)c1 (centres undefined) ?
RecA intein inh: 44*; Mtb betalactam: 47; YopH PTP inh: -39; Arbovirus anti: -2; Mtb H37Rv: 12%

How did CCOc1ccc(S(=O)(=O)N(C)CC(=O)NCCN2CCOCC2)cc1 do in these assays?
RecA intein inh: 7.1; Mtb betalactam: -9

Results for Cc1ccc(-n2c(C)cc(C(=O)CSc3nnnn3C)c2C)cc1 ?
RecA intein inh: 3.0; Mtb betalactam: -3; YopH PTP inh: -45; Arbovirus anti: -2; Mtb H37Rv: 4%

Random excerpt: 4 entries already listed, in no set order.
What do the screens show for `CCCSc1nnc(N2C(=O)CC(c3ccsc3)C3=C2CCCC3=O)s1` (centres undefined)?
RecA intein inh: 2.7; Mtb betalactam: -5; YopH PTP inh: -33; Arbovirus anti: 10; Mtb H37Rv: 0%; Arbovirus anti repeat: 2

What do the screens show for `Cc1ccn2c(=O)nc(SCC(=O)c3ccccc3)nc2c1`?
RecA intein inh: 0.4; Mtb betalactam: -2

How did CCOc1ccc(S(=O)(=O)N(C)CC(=O)NCCN2CCOCC2)cc1 do in these assays?
RecA intein inh: 7.1; Mtb betalactam: -9

How did O=C(N/N=C/c1cccc(C(F)(F)F)c1)C1CCN(c2ncc(C(F)(F)F)cc2Cl)CC1 do in these assays?
RecA intein inh: -6.7; Mtb betalactam: 53; YopH PTP inh: -25; Arbovirus anti: -4; Mtb H37Rv: -8%

Going on with the list:
How did O=S(=O)(c1cccs1)N1CCN(c2ncccn2)CC1 do in these assays?
RecA intein inh: -2.7; Mtb betalactam: -3; YopH PTP inh: 10; Arbovirus anti: 0; Mtb H37Rv: 2%

What do the screens show for `CNc1oc(-c2ccccc2)nc1S(=O)(=O)c1ccc(C)cc1`?
RecA intein inh: -0.1; Mtb betalactam: 2

Results for CC(NC(=O)CSc1nnc(-c2cccc(S(=O)(=O)N3CCCCC3)c2)o1)C12CC3CC(CC(C3)C1)C2 (centres undefined) ?
RecA intein inh: 7.5; Mtb betalactam: -25; YopH PTP inh: 22; Arbovirus anti: -12; Mtb H37Rv: -2%

Results for COc1ccc(/C=C/C(=O)c2ccccn2)cc1 ?
RecA intein inh: 0.3; Mtb betalactam: 0; Arbovirus anti: -5; Mtb H37Rv: -6%

How did CCCCC(=O)c1c(O)c2ccccc2oc1=O do in these assays?
RecA intein inh: 1.4; Mtb betalactam: 6; YopH PTP inh: -9; Arbovirus anti: 7; Mtb H37Rv: 4%

How did Cc1ccccc1OCC(=O)NC(=S)Nc1ccc2c3c(cccc13)CC2 do in these assays?
RecA intein inh: 1.9; Mtb betalactam: -5; YopH PTP inh: 0; Arbovirus anti: 8; Mtb H37Rv: 10%

Results for CN(C)CCCNS(=O)(=O)c1ccc(Cl)s1 ?
RecA intein inh: 1.3; Mtb betalactam: -3; Arbovirus anti: 1; Mtb H37Rv: -1%

Results for O=C(CCNC(=O)c1ccc(Cl)cc1)Nc1ccccc1Cl ?
RecA intein inh: -1.5; Mtb betalactam: 1

How did O=c1c(-c2ccc3c(c2)OCCO3)coc2c(CN3CCOCC3)c(O)ccc12 do in these assays?
RecA intein inh: 0.2; Mtb betalactam: -3; YopH PTP inh: -35; Arbovirus anti: -6; Mtb H37Rv: -1%

How did CC(C)(C)SC(C(=O)N1CCOCC1)c1ccc(Br)cc1 (centres undefined) do in these assays?
RecA intein inh: -1.3; Mtb betalactam: 9

Results for CC1CCCCC1NC(=O)CCn1ccc2cc(S(=O)(=O)N3CCCC3)ccc21 (centres undefined) ?
RecA intein inh: 1.0; Mtb betalactam: -6

How did Cn1c(SCC(=O)NC2CCCC2)nc2cccnc21 do in these assays?
RecA intein inh: 1.9; Mtb betalactam: -6; YopH PTP inh: -38; Arbovirus anti: 3; Mtb H37Rv: -5%

How did Cc1ccc2[nH]c(=O)c(C(c3nnnn3CC3CCCO3)N3CCCc4ccccc43)cc2c1 (centres undefined) do in these assays?
RecA intein inh: 2.5; Mtb betalactam: 0; YopH PTP inh: 34; Arbovirus anti: 0; Mtb H37Rv: -11%

What do the screens show for `COC(=O)c1ccc(CO/N=C/c2ccc(OC)cc2)o1`?
RecA intein inh: 4.0; Mtb betalactam: 10; Arbovirus anti: 3; Mtb H37Rv: -10%

What do the screens show for `CC(C(=O)NCCc1ccc(Cl)cc1)n1c(=O)c2cccn2c2cccnc21` (centres undefined)?
RecA intein inh: -2.8; Mtb betalactam: 0

Results for NS(=O)(=O)c1cc(C(=O)OCC(=O)Nc2ccccc2[N+](=O)[O-])ccc1Cl ?
RecA intein inh: -0.5; Mtb betalactam: -2; Arbovirus anti: -2; Mtb H37Rv: 8%

How did Cc1ccc(C(=O)O)cc1-n1c(C)cc(C=O)c1C do in these assays?
RecA intein inh: 1.9; Mtb betalactam: 0; Arbovirus anti: -1; Mtb H37Rv: -7%

How did CCC(c1nnnn1C(C)(C)CC)N(CCN1CCOCC1)Cc1cc2cc(C)ccc2[nH]c1=O (centres undefined) do in these assays?
RecA intein inh: -6.8; Mtb betalactam: -3; YopH PTP inh: 12; Arbovirus anti: 22

How did CCCc1[nH]c2ccc(C(=O)OC)cc2c1CCC do in these assays?
RecA intein inh: 0.5; Mtb betalactam: 90

How did Cc1nn(-c2ccccc2)c(Cl)c1/C=N/NS(=O)(=O)c1ccc(Br)cc1 do in these assays?
RecA intein inh: 3.5; Mtb betalactam: -4; YopH PTP inh: -40; Arbovirus anti: 5; Mtb H37Rv: -11%

How did CS(=O)(=O)N(CC(=O)NCc1ccccn1)c1ccc2c(c1)OCCO2 do in these assays?
RecA intein inh: 1.1; Mtb betalactam: 8; YopH PTP inh: -26; Arbovirus anti: 0; Mtb H37Rv: -3%

How did Cc1ccc(CNC(=O)COC(=O)c2c(C)noc2C)cc1 do in these assays?
Mtb betalactam: -2; YopH PTP inh: 18; Arbovirus anti: -1; Mtb H37Rv: -8%

What do the screens show for `COCC(=O)N1CCC(Oc2ccc(C(=O)NCCCn3cccn3)cc2)CC1`?
RecA intein inh: 1.9; Mtb betalactam: -5

What do the screens show for `Cc1ccc2c(C)nc(/N=C(\N)NC(=O)N3c4ccccc4Sc4ccccc43)nc2c1`?
Mtb betalactam: 2; YopH PTP inh: -31; Arbovirus anti: -1; Mtb H37Rv: inconclusive

How did COCCNC(=O)NC12CC3CC(CC(C3)C1)C2 do in these assays?
RecA intein inh: -0.8; Mtb betalactam: -2; Arbovirus anti: 10; Mtb H37Rv: 2%

What do the screens show for `O=C(Nc1ccccc1C(=O)OCn1nnc2ccccc2c1=O)c1ccco1`?
RecA intein inh: 0.7; Mtb betalactam: 87; YopH PTP inh: -13; Arbovirus anti: -1; Mtb H37Rv: 2%

What do the screens show for `CCOC(=O)N1CCN(C2=NC3(CCCCC3)C(C#N)C(=O)N2)CC1` (centres undefined)?
RecA intein inh: -0.3; Mtb betalactam: -2; YopH PTP inh: -50; Arbovirus anti: 1; Mtb H37Rv: -3%

What do the screens show for `CCC(C)c1ccc(O)c(/C=N/O)c1` (centres undefined)?
RecA intein inh: -7.0; Mtb betalactam: 2; YopH PTP inh: -16; Arbovirus anti: 0; Mtb H37Rv: 14%

What do the screens show for `CCNC(=S)N1CCn2cccc2C1c1cccnc1` (centres undefined)?
RecA intein inh: -1.6; Mtb betalactam: -5; Arbovirus anti: 6; Mtb H37Rv: 4%
